HCMV UL50-53 inh = disrupts HCMV UL50-UL53 complex binding; HTRF UL50-UL53 interaction, normalized percent inhibition; inhibition, % (no concentration beside the values); hit rate 0.15% among 190,000; AID 1918969;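 active means both replicates at 50% or more, plus weaker picks with an unusually low signal ratio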;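 further: stock transfer was 100 nL into about 20 µL; 0% = negative control wells and 100% = wells with untagged competitor protein; inactives centre near -12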
Sa growth 42C = inhibitors of Staphylococcus aureus growth at 42 °C. relative growth, % (no concentration beside the values). hit rate 0.53% among 170,000. S. aureus RN4220 growth, OD600, 20 h; active compounds read low;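 active means growth at 42 °C up to 50% and 20 or more points under that at 30 °C, or under 10% at both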;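 further: 300 nL library stock went into each well; scaled to the means of positive and negative controls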
GIV Gai3 FP = inhibitors of GIV GBA-motif binding to rat Galpha-i3 | Galpha-i3/FITC-GIV peptide fluorescence polarization, 90 min; active compounds read low; scaled: aluminum fluoride 0%, vehicle 100% | percent of control (FP), % (concentration not given with the values) | hit rate 0.42% among 210,000;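 active means replicate mean at 85% of control or lower, very high polarization wells dropped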;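 further: wells of about 15 µL received 100 nL stock; the first replicate is given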
Target sequence (P08753 whole entry, looked up): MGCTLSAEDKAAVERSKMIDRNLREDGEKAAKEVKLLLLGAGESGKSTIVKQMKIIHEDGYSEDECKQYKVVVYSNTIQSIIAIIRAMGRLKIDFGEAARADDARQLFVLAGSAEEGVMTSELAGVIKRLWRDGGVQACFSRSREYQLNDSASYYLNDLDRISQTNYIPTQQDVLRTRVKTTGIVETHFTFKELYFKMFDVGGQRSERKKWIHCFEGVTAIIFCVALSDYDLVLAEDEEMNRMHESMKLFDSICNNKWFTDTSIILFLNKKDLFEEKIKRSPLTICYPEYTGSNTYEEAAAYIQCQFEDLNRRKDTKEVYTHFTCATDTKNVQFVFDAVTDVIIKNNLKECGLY
Sa growth 42C second temp = second read-out of Sa growth 42C, no call of its own (marks repeat the call); relative growth, %; measured here: growth at 30 °C;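 optical density after 20 h as mean of two plates; 100% = untreated growth and lower means inhibition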
Starred values were filed as active, the others as inactive; . = not tested or not shown; & = joins results of further samples.

SMILES	HCMV UL50-53 inh	Sa growth 42C	Sa growth 42C second temp	GIV Gai3 FP
CCN(C(=O)C1CCCN(c2ncnc3onc(-c4ccc(F)cc4)c23)C1)c1ccccc1 (stereo not drawn)	.	98.2	101.2	108.3
COc1ccc2nc(NC(=O)COC(=O)c3cccc(S(=O)(=O)N4CCOCC4)c3)sc2c1	-6.5	119.7	86.8	.
CCN(CCO)C(=O)C12CCC(C)(C(=O)C1)C2(C)C (stereo not drawn)	-15.3	123.9	98.1	105.0
O=C(COc1coc(CN2CCc3ccccc32)cc1=O)c1ccccc1	-31.4	72.1	48.0	99.8
CCn1c(C(=O)O)c(CC(=O)N2CCN(c3ccc(OC)cc3)CC2)c2ccccc21	-19.1	.	.	100.7
CC(=O)N1CCc2cc(S(=O)(=O)CCC(=O)Nc3ccc(C)cc3Cl)ccc21	0.2	97.6	105.4	105.2
COc1ccccc1NC(=O)CC1COc2ccccc2O1 (stereo not drawn)	-16.7	105.2	65.0	106.2
Cc1ccc(-n2cnnn2)c(Br)c1	-1.4	.	.	102.1
Cn1nc(-c2ccc(Cl)cc2)c2cc(C(=O)N3CCN(c4cccc(Cl)c4)CC3)sc21	-6.3	95.7	89.4	106.3
Cc1cccc(CN2CCC(CNC(=O)NCc3noc4ccccc34)CC2)c1	.	102.3	83.1	105.2
NNC(=O)c1csc(COc2cc(Cl)cc(Cl)c2)n1	-13.1	97.8	97.0	111.0
CCC(=O)N1CCc2cc(S(=O)(=O)NC(C(=O)NCc3ccccc3)C(C)C)ccc21 (stereo not drawn)	0.0	123.3	85.2	98.4
COc1ccc(CCC(=O)Nc2ccc3c(c2)N(S(=O)(=O)c2ccccc2)CCC3)cc1	-31.2	.	.	108.4
CCOc1ccc(-n2nc(CO)c(C(=O)NCC(C)O)n2)cc1 (stereo not drawn)	-1.6	106.6	93.5	100.5
Cn1c(C(=O)Nc2ccc3c(c2)OCCO3)cc2c(=O)[nH]c3ccccc3c21	3.7	111.0	96.4	106.0
CCC(=O)Nc1ccc2nc(SCCOc3ccccc3)sc2c1	-8.6&-24.9	98.6	93.9	98.2&100.8
CC(C)C1C(=O)Nc2ccc(S(=O)(=O)NCc3ccccc3)cc21 (stereo not drawn)	-34.8	92.6	83.8	112.1
CCOC(=O)c1ccc(N2COc3ccc4c5c(c(=O)oc4c3C2)CCC5)cc1	5.7	94.1	101.6	99.8
CCOc1ccc(OCC(=O)Nc2ccc(S(=O)(=O)Nc3cc(C)on3)cc2)cc1	-33.6	68.0	67.7	102.0
CC(=O)c1ccc(NC(=O)COc2ccccc2-c2nc(-c3cccc(C)c3)no2)cc1	-22.3	97.5	90.1	100.8
Nc1ccc2c(c1)C(=O)N(CCC(=O)O)C2=O	-98.4	83.5	85.3	95.3
CCOc1ccc(-n2nc3ccc(NC(=O)COc4ccccc4)cc3n2)cc1	-16.7	100.6	96.2	109.7
OC12CCCCC1C(c1ccc(Cl)cc1Cl)NCC2 (stereo not drawn)	-4.7	91.2	92.2	.
O=C1Cc2cc(S(=O)(=O)Nc3cccc(C(F)(F)F)c3)cc3c2N1CCC3	.	101.4	85.0	94.1
Cc1cccn2cc(CSc3nc4ccccc4o3)nc12	-18.2	85.1	100.3	.

Reformatted with each value named: 3 of the compounds above
> COc1ccc2nc(NC(=O)COC(=O)c3cccc(S(=O)(=O)N4CCOCC4)c3)sc2c1
- HCMV UL50-53 inh = -6.5
- Sa growth 42C = 119.7
- Sa growth 42C second temp = 86.8
- GIV Gai3 FP = .
> CCN(CCO)C(=O)C12CCC(C)(C(=O)C1)C2(C)C (stereo not drawn)
- HCMV UL50-53 inh = -15.3
- Sa growth 42C = 123.9
- Sa growth 42C second temp = 98.1
- GIV Gai3 FP = 105.0
> O=C(COc1coc(CN2CCc3ccccc32)cc1=O)c1ccccc1
- HCMV UL50-53 inh = -31.4
- Sa growth 42C = 72.1
- Sa growth 42C second temp = 48.0
- GIV Gai3 FP = 99.8

Looked up by structure from above, three records:
SMILES	HCMV UL50-53 inh	Sa growth 42C	Sa growth 42C second temp	GIV Gai3 FP
Nc1ccc2c(c1)C(=O)N(CCC(=O)O)C2=O	-98.4	83.5	85.3	95.3
OC12CCCCC1C(c1ccc(Cl)cc1Cl)NCC2 (stereo not drawn)	-4.7	91.2	92.2	.
CCOc1ccc(-n2nc(CO)c(C(=O)NCC(C)O)n2)cc1 (stereo not drawn)	-1.6	106.6	93.5	100.5

(further entries)
SMILES	HCMV UL50-53 inh	Sa growth 42C	Sa growth 42C second temp	GIV Gai3 FP
CC(C)(C)C(Cc1ccccc1)C(=O)O (stereo not drawn)	-97.3	106.8	89.5	93.8
CCOc1ccc(-c2nnc(SCC(=O)NCc3ccc(C)cc3)nc2-c2ccc(OCC)c(OC)c2)cc1OC	.	87.1	90.2	104.1
Cc1ccc(Cl)cc1N1CCN(C(=O)CCC(=O)Nc2ccc3nc(N4CCC(C)CC4)cc(C)c3c2)CC1	4.9	100.8	94.6	107.2
COc1ccc(C/C(C)=N/NC(=O)c2cccs2)cc1	12.1	106.1	95.6	.
Oc1ccccc1-c1nc(/C=C/c2ccccc2)nn1-c1ccccc1	-21.6	106.5	88.9	105.5
Cc1ccccc1NC1CC(C)Nc2c(C)cccc21 (stereo not drawn)	.	118.8	96.8	102.6
COc1ccc(OCC(=O)NC(Cc2c[nH]c3ccccc23)C(=O)O)cc1 (stereo not drawn)	-24.2	90.4	91.3	101.9
CCN1CCN(CCNC(=O)C2CCC(Cn3c(=S)[nH]c4ccccc4c3=O)CC2)CC1 (stereo not drawn)	-5.8	102.3	91.2	105.7
Cc1cccc(OCCBr)c1	-18.7	118.8	84.3	.
Cc1cc2ccccn2c1C(=O)c1nc(N2CCN(c3ccc(F)cc3)CC2)ncc1Cl	-22.9	93.6	93.5	.
CC(C(=O)NCc1ccc(Cl)cc1)n1cccc1C(=O)c1ccccc1 (stereo not drawn)	.	112.5	88.8	98.1
Cc1[nH]c(=O)[nH]c(=O)c1S(=O)(=O)N1CCN(C)CC1	-4.6	.	.	103.1
COc1ccc(C(=O)N2C(=O)N(c3ccccc3)C3(C)CC2c2ccccc2O3)cc1 (stereo not drawn)	-24.8	92.6	87.7	100.2
CC1(C)CC(=O)c2cc(C(=O)Nc3ccc(Br)cc3)c(=O)[nH]c2C1	-21.6&15.8	89.1	89.8	100.2&96.4
CCOC(=O)C1CCN(C(=O)CSc2ccc(Cl)cc2)CC1	19.8	76.8	97.4	.
Cc1ccc(CSc2nc3c([nH]c4ccccc43)c(=O)n2C)cc1	.	122.4	83.5	102.5
CC(=O)NCC(=O)N1CCN(Cc2ccc3c(c2)OCO3)CC1	-28.7	79.0	97.1	.
CC(=O)N1CCc2cc3nc(C)cc(C)c3cc21	.	113.2	90.5	100.0
CCC1(C)OC(=O)N(CCc2c(C)[nH]c3ccccc23)C1(C)O (stereo not drawn)	11.4	70.9	83.4	.
COc1ccc(NS(=O)(=O)N(C)C)cn1	-1.4	105.6	99.5	103.2
CCN(CC)CCN1C(=O)c2ccccc2NC1c1cc(OC)c(OC)c(OC)c1 (stereo not drawn)	-11.8	.	.	100.6
CCc1c(C)sc2c1CCN(C(=O)Nc1cc(OC)c(OC)c(OC)c1)C2c1ccccc1 (stereo not drawn)	.	93.7	86.2	99.3
Cc1noc(NS(=O)(=O)c2ccc(NC(=O)c3ccc(Br)cc3)cc2)c1C	-27.0	92.1	98.0	104.3
Cc1cc(C)c2nc(N3CCCC(C(=O)NCc4cccc(Cl)c4)C3)sc2c1 (stereo not drawn)	-26.1	103.6	90.1	103.4
CCc1nc2c(cnn2-c2ccc(C)cc2)c(=O)n1Cc1ccccc1	-16.0	111.4	91.1	103.3

The results go on:
SMILES	HCMV UL50-53 inh	Sa growth 42C	Sa growth 42C second temp	GIV Gai3 FP
O=C(c1cc(-c2cccnc2)n(-c2ccc(F)cc2)n1)N1CCN(C2CCCCC2)CC1	12.9	.	.	107.5
CCOC(=O)c1nn(-c2ccccc2)c(N=Nc2ccc3c(c2)OCO3)c1O	-22.6	96.6	88.4	.
COc1ccc(C)cc1NC(=O)NCc1ccc2c(c1)CCN2C(=O)c1ccccc1	.	108.2	103.4	103.0
CCN(CC)CCn1cnc2ccccc21	2.0	96.2	90.3	.
CN(C)CCNc1ncnc2ccccc12	-11.0	110.7	102.5	98.4
CCCC(=O)OCc1cnc(C)c2oc(=O)c(C(=O)Nc3ccc(OCc4ccccc4)cc3)cc12	-20.6	.	.	99.1
O=c1oc(-c2ccccc2Cl)nc2sc3c(c12)CCCCC3	-5.6	.	.	111.0
CCOC(=O)c1sc(NC(=O)/C=C/c2ccc(OCC)cc2)c(C(=O)OCC)c1C	.	116.9	84.0	102.2
O=C(Nc1nccs1)c1ccccc1NS(=O)(=O)c1ccc(F)cc1	-1.1	15.9	5.3	105.2
CCOc1ccc(-c2nc(SCC(=O)NCCCOC)c(-c3ccccc3)[nH]2)cc1	16.6	98.5	99.6	98.8
CN(C)c1ccc(C2CC(=O)c3ccccc3N2)cc1 (stereo not drawn)	-0.9	88.3	93.0	107.8
COc1ccc(N2CCN(C(=O)c3cnn(-c4ccc(F)cc4)c3-n3cccc3)CC2)cc1	.	116.6	86.4	99.9
CC1(C(=O)NCc2ccccc2)CCN(C(=O)c2ccc(Cl)cc2)CC1	-6.4	.	.	102.9
O=C(NCc1nc2ccccc2[nH]1)c1cccc(Cl)c1	-10.5	111.2	94.0	103.2
Cc1cccc(-c2ccc(Nc3ccc(C(=O)NCC(C)C)cc3)nn2)c1	3.2	.	.	102.9
O=C(c1ccc(NC(=O)N2CCCCc3ccccc32)cc1)N1CCN(C2CCCCC2)CC1	-8.3	.	.	103.2
Cc1ccc(S(=O)(=O)C(CNC(=O)C(=O)NCc2ccccc2C)c2cccs2)cc1 (stereo not drawn)	.	114.9	99.4	97.5
COc1ccc(CN2CC(=O)N(c3ccc(C)c(C)c3)[C@@H]3CS(=O)(=O)C[C@@H]32)cc1	-14.4	.	.	105.8
O=C(CCn1nnc(-c2cccs2)n1)NCc1ccccc1Cl	11.9	85.0	90.0	106.7
CCOC(=O)C1CCN(C(=O)c2ccc(NC(=O)c3nsc4ccccc34)cc2)CC1	.	110.3	100.6	107.6
COc1ccc(C2C(C(=O)N3CCCCC3)=C(C)NC3=C2C(=O)CCC3)cc1O (stereo not drawn)	.	100.4	93.9	98.7
CCOC(F)(C(N)=O)C(F)(F)F (stereo not drawn)	-25.8	99.8	94.9	101.8
Cc1ccc(-n2c(=O)c3cccnc3n2CC(=O)Nc2ccc(C)cc2Cl)cc1	.	77.1	90.9	105.2
Cc1c(Br)c(C(F)(F)F)nn1CC(=O)N1CCOCC1	-5.5	73.9	93.1	.
O=C(Cc1csc2ccccc12)NCc1cccc(Br)c1	5.8	108.9	106.3	102.2

(further entries)
SMILES	HCMV UL50-53 inh	Sa growth 42C	Sa growth 42C second temp	GIV Gai3 FP
CNC(=O)c1cnc2sc(C)c(C)n2c1=O	-20.0	.	.	99.6
Cc1ccccc1OCC(=O)OCc1cc(=O)n2nc(C3CC3)sc2n1	.	89.7	92.0	105.5
Fc1ccccc1CSc1nnc2n1CCN2c1ccccc1	7.5	.	.	103.8
CCc1cccc(CC)c1NC(=O)C(Cc1ccccc1)NS(=O)(=O)c1cccc2nsnc12 (stereo not drawn)	-90.0	96.6	88.9	105.6
CCSC1(SCC)N=C(N)C2(C#N)C(c3cccc(OC)c3)C12C#N (stereo not drawn)	-11.9	80.3	68.6	106.3
Cc1ccc(CNC(=O)CN2C(=O)C3(OCCCO3)c3ccccc32)cc1	-18.7	95.9	83.6	101.8
Cc1ccc(N2C(=O)N(Cc3c(C)noc3C)C(=O)C2C)cc1 (stereo not drawn)	-19.9	98.5	97.5	.
CCOc1ccc(Cn2c(-c3ccc(OCC)c(OC)c3)nc3ccccc32)cc1OC	-2.0	107.5	92.2	101.2
COc1ccc(OC)c(NC(=O)c2cccnc2)c1	-0.7	81.6	106.9	.
C=CCNC(=O)c1ccc2c(c1)nnn2C	9.5	90.9	84.8	100.8
CC(C)(C)C(=O)NCC(c1ccc2c(c1)OCO2)N1CCOCC1 (stereo not drawn)	.	93.2	93.1	98.8
CCN(CC)c1cc(C)nc2nc(-c3ccc(C)cc3)nn12	-19.7	110.7	81.0	107.1
NC(=O)CN1CCN(C/C=C/c2ccccc2)CC1	-32.0	109.1	102.1	101.3
CN=C(C)/C(C(=O)OC)=C(\O)c1cc(C)on1	4.3	101.7	90.7	103.6
CCN(C(=O)c1cc(S(=O)(=O)N2CCCCC2)c[nH]1)c1ccc(OC)cc1	.	99.8	91.1	107.2
Cc1ccc(/C=N/NC(=O)C2=NNC(=O)C2C)o1 (stereo not drawn)	-51.1	96.7	94.0	100.5
O=C(NCCCN1CCN(c2ccccc2F)CC1)c1cc(=O)n2c(nc3ccccc32)s1	-15.0	.	.	97.5
COc1ccc(Cn2c(=O)[nH]c3cc(C(=O)NCCC(C)C)ccc3c2=O)cc1	-7.1	98.7	90.8	106.6
C=CCN1C(=O)/C(=C/c2c(Sc3ccccc3)nc3ccccn3c2=O)SC1=S	.	125.3	78.7	-36.2*
Cn1c(=O)c2cn(-c3ccccc3)cc2n(C)c1=O	-18.0	106.0	84.5	102.5
